TAR Tat displ = HIV-1 TAR-Tat binding disruption; HIV-1 TAR RNA, Tat peptide displacement FRET; stronger effect = higher value; AID 1259389; 100,000 compounds, 0.6% hits; z-score (concentration not given with the values);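 note: score is relative to mean and SD of negative controls; some compounds called inactive have numbers as strong as hits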
CDC25B CDK2 inh = human CDC25B-CDK2/CyclinA binding inhibition. 94,000 compounds, 0.72% hits. HTRF CDC25B-CDK2/CyclinA binding, anti-His/anti-Flag; stronger effect = higher value. z-score (test concentration not listed). AID 1259370. P30305+P24941;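 note: score is relative to mean and SD of negative controls; strong numbers were not always called active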
* hit, by the source's call; x = not tested or not shown.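 Rule for the calls: active = z-score from 3 up in half or more of its runs; inactive = the rest.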

The first 6 records, to show the layout:
SMILES	TAR Tat displ	CDC25B CDK2 inh
O=C(c1cccc(Cl)c1)N(Cc1ccco1)C1CCS(=O)(=O)C1 (centres undefined)	1	-2.5
CC(C)c1ccc(NC(=O)[C@@H]2[C@@H]3C(=O)O[C@@H]4C(Cl)[C@H]2C[C@H]34)cc1 (some centres undefined)	1.4	x
Cc1ccc2c(c1)cc1c(=O)n(Cc3cccc(Cl)c3)nc(C)n12	-0.43	-1.5
CC(=O)N1c2ccc(S(=O)(=O)N3CCOCC3)cc2CC1C(=O)NCc1ccc(C)o1 (centres undefined)	1.5	x
Cc1ccc(C)c(Nc2nc3ccccc3n3cnnc23)c1	-0.43	-0.85
CCOc1ccc(Oc2cc3c(cc2N)n(C)c(=O)c(=O)n3C)cc1	0.58	x

The listing (from the top)
SMILES	TAR Tat displ	CDC25B CDK2 inh
O=C(c1cccc(Cl)c1)N(Cc1ccco1)C1CCS(=O)(=O)C1 (centres undefined)	1	-2.5
CC(C)c1ccc(NC(=O)[C@@H]2[C@@H]3C(=O)O[C@@H]4C(Cl)[C@H]2C[C@H]34)cc1 (some centres undefined)	1.4	x
Cc1ccc2c(c1)cc1c(=O)n(Cc3cccc(Cl)c3)nc(C)n12	-0.43	-1.5
CC(=O)N1c2ccc(S(=O)(=O)N3CCOCC3)cc2CC1C(=O)NCc1ccc(C)o1 (centres undefined)	1.5	x
Cc1ccc(C)c(Nc2nc3ccccc3n3cnnc23)c1	-0.43	-0.85
CCOc1ccc(Oc2cc3c(cc2N)n(C)c(=O)c(=O)n3C)cc1	0.58	x
O=c1[nH]ccn(-c2cccc(Cl)c2)c1=O	0.93	-0.87
CS/C(=N\S(=O)(=O)c1cc(C(F)(F)F)cc(C(F)(F)F)c1)N1CCOCC1	x	-0.86
CCn1cc([N+](=O)[O-])c(C(=O)Nc2ccc3c(c2)OCCO3)n1	1.4	-1.8
COCCNC(=O)c1c(NC(=O)c2cc(=O)c3cc(C)c(C)cc3o2)sc2c1CCCC2	0.89	-1.3
C=C1C2CC[C@@]3(C)[C@H](c4ccoc4)OC(=O)C[C@]13O[C@H]1CC(=O)C(C)(C)C(CC(=O)OC)C21C (some centres undefined)	1.9	x
O=C(NCc1cccs1)Nc1cc2ccccc2s1	x	-2.1
COc1ccc(Cc2nn3cnnc3s2)cc1	-0.89	-2
CCC(NS(=O)(=O)c1ccc2c(c1)NC(=O)C(C)C(=O)N2)c1cccs1 (centres undefined)	1.1	-0.69
CCOc1ccc(OCC)c(Nc2nc3ccccc3c3nnc(CC)n23)c1	2.7	x
Cc1ccc(CNCc2cccn2-c2nnc(N3CCN(C)CC3)s2)cc1	1	x
O=C(COc1ccccc1F)Nc1ccc(OCc2cc(=O)n3ccccc3n2)cc1	0.43	x
CC(=O)Oc1ccc2c(c1)CCC1C2CC[C@@]2(C)C1CC[C@@H]2OC(C)=O (some centres undefined)	0.45	x
O=C(Nc1ccccc1Br)c1csc2c1CCCC2	1.5	-1.1
Cc1c(C)n(-c2ccccc2Cl)c2ncn3nc(CSc4nc5ccccc5o4)nc3c12	0.59	-1
Cc1cccc(Cl)c1-n1sc(=O)n(CC2CC2)c1=O	x	-0.31
O=c1ccc(-c2ccc(S(=O)(=O)NCCc3ccccc3)o2)n[nH]1	0.32	x
CC1CC(C)CN(c2cc(N3CCOCC3)c3c4c(onc24)-c2ccccc2C3=O)C1 (centres undefined)	0.14	-2.1
COc1ccc(-c2cn3cc(Cl)ccc3n2)cc1F	0.48	-0.65
Cc1ccc(Cl)cc1N1CCN(Cc2nnc(-c3ccc4c(c3)OCO4)o2)CC1	-0.37	-0.56
CCOC(=O)C12CNC(=O)C(C(=O)OCC)(CNC1=O)C2	-0.42	-2.2
Cn1cnc(S(=O)(=O)Oc2cccnc2)c1	x	-1.4
O=C(Nc1ccc(Cl)cc1)C1CCC(CNc2c(N3CCCC3)c(=O)c2=O)CC1 (centres undefined)	1.2	-1.2
CCOC(=O)c1sc2ncn(CC(=O)Nc3ccccc3C(F)(F)F)c(=O)c2c1C	x	-1.9
O=C(O)c1ccc(C2SCC(=O)N2Cc2ccccc2)cc1 (centres undefined)	-0.13	-0.21
CC1=NN(c2ccccc2)C(=O)C1C(=O)c1ccccc1 (centres undefined)	1.8	-0.25
CCN(CCCNS(=O)(=O)c1ccc2c(c1)NC(=O)C(C)CS2)c1ccccc1 (centres undefined)	1	x
COCc1nn2c(=O)c(NC(=O)c3ccccc3Cl)cnc2s1	0.17	-0.06
Cc1c(C(=O)NCCCN2CCC(C)CC2)sc2nc3n(c(=O)c12)CCCC3	1.8	x
O=C(c1cc2c(Cl)ccc3c2n1CCO3)N1CCN(c2ccccc2F)CC1	0.66	x
CCS(=O)(=O)N1N=C(c2cccc(NS(C)(=O)=O)c2)CC1c1ccc(F)cc1 (centres undefined)	x	-1.2
Cc1ccc2c(c1)C(Cc1nc3ccccc3c(=O)n1CCCO)C(=O)N2Cc1ccccc1 (centres undefined)	1.6	0.83
O=C(Nc1ccc(Cl)c(Cl)c1)Nn1cnnc1	x	18*
COc1ccc2c(c1OC)C(=O)N(c1ncn[nH]1)C2	x	-1.6
CCc1ncc(C(O)c2ccccc2)n1C (centres undefined)	1.2	-1.2

In a second layout: entries from further up
Structure | TAR Tat displ | CDC25B CDK2 inh
COc1ccc2c(c1OC)C(=O)N(c1ncn[nH]1)C2 | x | -1.6
CCN(CCCNS(=O)(=O)c1ccc2c(c1)NC(=O)C(C)CS2)c1ccccc1 (centres undefined) | 1 | x
Cc1ccc(Cl)cc1N1CCN(Cc2nnc(-c3ccc4c(c3)OCO4)o2)CC1 | -0.37 | -0.56
CCOC(=O)c1sc2ncn(CC(=O)Nc3ccccc3C(F)(F)F)c(=O)c2c1C | x | -1.9
O=c1ccc(-c2ccc(S(=O)(=O)NCCc3ccccc3)o2)n[nH]1 | 0.32 | x

New compounds follow:
SMILES	TAR Tat displ	CDC25B CDK2 inh
O=C(NC(=O)c1ccc(S(=O)(=O)N2CCOCC2)cc1)Nc1ccc(Cl)cc1	x	-0.93
CCOC(=O)N1CCN(Cc2nc3cc(NC(=O)NC4CCCCC4)ccc3n2CC)CC1	-0.39	-1.9
Cc1ccccc1Cn1c(CN2CC(C)OC(C)C2)nc2c1c(=O)[nH]c(=O)n2C (centres undefined)	-1.1	-2.2
O=C(CCS(=O)(=O)c1ccc(F)cc1)Nc1nc(-c2ccncc2)cs1	1.5	x
CC(C)c1nnc2sc(-c3cccc(F)c3)nn12	5	0.28
C#CCOc1cccc(C2CC(=O)Nc3c2cnn3-c2nc3ccccc3s2)c1 (centres undefined)	-0.06	x
Cc1sc(-n2cccc2)c(C(C)NC(=O)Nc2ccc(Br)cc2F)c1C (centres undefined)	0.52	-2.2
COc1ccccc1C(=O)Nc1cc(C#N)c2[nH]c3ccccc3n2c1=O	-4.3	-0.09
COC(=O)c1ccc(NC(=O)CSc2nc(SC)ns2)cc1	0.77	-0.65
Cc1snnc1C(=O)Nc1c(C(C)(C)C)nn(C)c1C(C)(C)C	x	-1.3
Cc1[nH]c(C)c(S(=O)(=O)N(Cc2ccco2)C2CCCCC2)c1C(=O)N1CCCC1	0.17	x
CCc1nnc2c3ccccc3nc(Nc3ccc(OC)cc3OC)n12	-0.64	0.11
O=c1c(SCc2ccc(F)cc2)nccn1-c1ccc(F)cc1	-1	x
CCOc1cc(/C=C2/SC(N3CC(C)OC(C)C3)=NC2=O)ccc1O (centres undefined)	x	-3.6
O=C1CCSc2ccc(S(=O)(=O)NCCc3ccc(Cl)cc3)cc2N1	1.1	x
Cc1nnsc1C(=O)NC(=O)Nc1cc(C(F)(F)F)cc(C(F)(F)F)c1	x	-0.64
CC1=C(c2ccc(C)cc2)S(=O)(=O)N=C1N1CCCC(C)C1 (centres undefined)	0.83	0.09
Cc1ccc2oc3c(c(=O)c2c1)C(c1ccc(Br)cc1)N(CCCN1CCOCC1)C3=O (centres undefined)	-0.16	-2.3
CC(C)CCNC(=O)C1(C)Cn2c(cc3occc32)C(=O)N1CCN1CCOCC1 (centres undefined)	1.6	0.22
O=S(=O)(c1ccc2nc(NC3CCCC3)cnc2c1)N1CCCCC1	-0.93	-5.3
CC(=O)c1c(C)oc2c(Cl)cc(NS(=O)(=O)c3ccc(Br)cc3)cc12	x	-2.4
CCOC(=O)Cc1csc(NC(=O)Nc2ccc(F)cc2)n1	-0.11	-1.3
CC(C)C1(CCNC(=O)c2cccs2)CCOC(C)(C)C1 (centres undefined)	0.43	-0.33
Cc1ccccc1C(=O)Nc1c(C(=O)NC(C)(C)C)oc2ccccc12	0.36	x
CCOc1ccc(S(=O)(=O)c2cn(CC)c3ccc(F)cc3c2=O)cc1	0.23	-1.1
COc1cc(Cl)c(C)cc1-n1ccnc(OC)c1=O	-0.26	0.03
CCc1nn(CC(=O)NCCCN2CCCCC2C)c(=O)c2cc3sccc3n12 (centres undefined)	-0.36	-0.39
Nc1c(C(=O)N2CCCCC2)sc2nc(N3CCCC3)c3c(c12)CCCC3	-0.11	-1.1
COC(=O)COc1c(Br)cc(Br)cc1C(=O)OC	x	-0.88
CC(=O)NC1=NC(=O)CN1C	x	-0.21
O=C(Nc1ccc(Br)cc1F)C1CCN(c2ccc(-c3cccs3)nn2)CC1	1.3	x
COc1ccc(-c2c(C(F)(F)F)oc3cc(OC(=O)c4ccncc4)ccc3c2=O)cc1OC	2	-1.5
Cc1ccc(N2CCN(c3cc(C)nc4nc(-c5ccco5)nn34)CC2)c(C)c1	0.98	x
Cc1nnc(SCC(=O)O)c2nn(-c3ccc(Cl)cc3)c(C)c12	0.31	-0.4
COc1ccc(S(=O)(=O)N(Cc2ccccc2)Cc2nc(-c3ccccc3)no2)cc1	-0.98	-1.9
OCCN1CCN(c2ncnc3nc[nH]c23)CC1	0.71	-1.3
O=C(O)C1=CC(c2cccc(Cl)c2)n2nnnc2N1 (centres undefined)	1.7	x
c1ccc(-c2c(-c3ccccc3)n(Cc3ccco3)c3ncnc(NCc4ccco4)c23)cc1	-7.6	2.8
Cc1sc2c(c1C)CSC(C(=O)Nc1ccc(N3CCC(C)CC3)cc1)=C2	2.9	x
CCOC(=O)N1CCN(C(=O)c2ccc3nc4cc(Cl)ccc4c(=O)n3c2)CC1	1.7	x
COc1ccc(-n2nnnc2C2CCN(S(=O)(=O)c3ccc(S(C)(=O)=O)cc3)CC2)cc1	1.4	-0.93
COc1cc2c(cc1OC)C(COc1ccc3c(C)cc(=O)oc3c1)N(C(C)=O)CC2 (centres undefined)	x	1.1
O=C(CN1C(=O)c2ccccc2S1(=O)=O)NCCSCc1ccco1	-0.02	0.4
CCCOCC1CC2(CC(C)(c3csc(Nc4ccc(C)cc4)n3)OC2=O)C(=O)O1 (centres undefined)	0.04	-0.39
CCNC(=S)NNC(=O)C(c1ccccc1)c1ccccc1	x	-1.3
CC(=O)Nc1cccc(-n2nnc(SCC(=O)NCc3cccs3)n2)c1	x	-1.3
COc1ccc(-c2c(C)oc3ccc(C)cc23)cc1	0.9	0.49
Cc1ccc2nc(-c3ccc(NC4=NS(=O)(=O)c5ccccc54)cc3)sc2c1	0.96	0.84
COc1ccc2nc(-n3nc(C)c4c3NC(=O)CC4c3cc(Br)ccc3F)sc2c1 (centres undefined)	0.75	x
C=CCn1c(C2CC(=O)N(Cc3cccs3)C2)nc2ccccc21 (centres undefined)	-0.02	-0.43
CC(C)Cn1cc(NC(=O)Nc2ccc(Br)cc2F)c2ccccc2c1=O	-0.05	14*
CC(=O)NCCNC(=O)c1ccc(NC2=NC3CS(=O)(=O)CC3S2)cc1 (centres undefined)	11*	x
Cc1cccc(-n2nnc(-c3nc(-c4cccs4)no3)c2N)c1C	1.7	x
CN(Cc1ccccc1)C(=O)c1cn2c3c(ccc(Cl)c3c1=O)OCC2	0.75	x
CNS(=O)(=O)c1ccc2nc(NC(=O)c3cncc(Br)c3)sc2c1	1.3	x
O=C(NCCCc1ccco1)c1cnc2sc(N3CCCC3)nn2c1=O	0.12	-1.4
CCCN1C=NS(=O)(=O)c2cc(C(=O)NC3CC3)ccc21	0.57	x
CCOc1cc(-c2cc(OCC)c3c(C)oc(C)c3c(=O)c2)ccc1O	-0.93	-1.7
Cc1cn[nH]c1-c1cccs1	x	-2.1
CCCc1cc(=O)n2nc(N3CCC(C(=O)NCCCN4CCN(CC)CC4)CC3)sc2n1	-0.05	-0.85

Complete entries from above. Screens in order: TAR Tat displ, CDC25B CDK2 inh
Record of CCNC(=S)NNC(=O)C(c1ccccc1)c1ccccc1 = x, -1.3
Record of CNS(=O)(=O)c1ccc2nc(NC(=O)c3cncc(Br)c3)sc2c1 = 1.3, x

The list goes on:
SMILES	TAR Tat displ	CDC25B CDK2 inh
COc1ccccc1CN(C)CCc1ccccn1	1.7	-1.4
Clc1ccc(-c2ccc(CNCCN3CCOCC3)o2)cc1	0.4	x
Cn1cccc1CN1CCS(=O)(=O)CC1	x	-2.1
O=C(CSc1nnc2scc(-c3ccccc3)n12)c1ccc(Cl)cc1	0.42	-5.2
O=c1[nH]ncc(N2CCCC2)c1Cl	1.3	-1.4
O=C(NCc1cccs1)c1cnc(N2CCCC2)nc1	-0.35	-1.7
Cn1c(=O)c(=O)n(C)c2cc(S(=O)(=O)CCC(=O)NC3CCCc4ccccc43)ccc21 (centres undefined)	2.2	-1.1
CC1Cc2cc(S(=O)(=O)N3CCN(c4ccccn4)CC3)ccc2N1C(=O)C1CC1 (centres undefined)	-0.27	x
Cc1nn(C)c(C)c1S(=O)(=O)N1CCC(c2c(C)n(Cc3ccc(F)cc3)c3ccccc23)CC1	0.87	x
N#C/C(=C/c1cc(Cl)c(O)c(Cl)c1)C(=O)Nc1cccc(Br)c1	x	-2.2
COc1ccccc1-c1nnc(Cc2ccccc2Cl)o1	1.7	-1.6
CCOC(=O)N1CCC(NC(=O)CCC(=O)N2CCOc3ccc(Cl)cc32)CC1	-0.17	-1.7
COc1ccc(N2C(=O)CCS2(=O)=O)cc1S(=O)(=O)N1CCN(c2ccccc2)CC1	0.4	-1.1
Cc1nc2nc[nH]n2c(=O)c1CCC(=O)NC1CCCCC1	1.1	-1.9
Cc1nn(C)c(Sc2ccccc2N)c1[N+](=O)[O-]	x	-1.8
C=C(C)Cn1c(=O)c2c(nc3n2CCN3c2ccc(C)cc2)n(C)c1=O	0.72	x

From PubChem BioAssay
